Source: PubChem (several laboratories)
RN4220 kill: S. aureus RN4220 growth inhibition; OD600, 16 h; inhibition, % (concentration not given with the values); hit rate 0.33% among 330,000; AID 1259311;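 active = z-score of -3 or lower and OD600 up to 0.18 on both plates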;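 note: plate controls were untreated cells for no effect and reference antibiotic for full effect; stock transfer was 100 nL into about 80 µL; one replicate is shown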
PrP 5UTR inh: inhibition of PrP 5' UTR reporter expression; cell-based PrP 5' UTR mRNA reporter, plate reader; AID 488862; inhibition, % (concentration not given with the values); hit rate 0.35% among 340,000;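 active = every replicate at 50% or more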;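 note: 0 = median of the neutral control wells; tested in H4 reporter cells; numbers are from one replicate; inactives centre near -14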
ugtP null kill: compounds lethal to S. aureus RN4220 ugtP deletion mutant. OD600 growth, 16 h; some inactives read as strong as hits. growth inhibition, % (concentration not given with the values). hit rate 0.54% among 330,000. AID 1259309;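 active = z-score under -3 and OD600 up to 0.15 on both plates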;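 note: plate controls were untreated wells for no effect and antibiotic for full effect; wells of about 80 µL received 100 nL stock; the first replicate is given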
BJeLR viability: BJeLR cell viability loss; AID 1554; inhibition, % (no concentration beside the values); hit rate 0.17% among 300,000; BJeLR (HRASV12) viability, CellTiter-Glo ATP luminescence, 48 h; reference of the scale not given here;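 active = replicate mean above 50%; inconclusive = above 50% but judged a plate artefact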;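 note: 50 nL library stock added to about 25 µL; numbers are from one replicate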
Mtb hypoxia rep: inhibitors of hypoxia-regulated fluorescent reporter in Mycobacterium tuberculosis | AID 1159583 | hit rate 0.1% among 300,000 | M. tuberculosis hypoxia-regulated fluorescent reporter, fluorescence | fluorescence inhibition, % (concentration not given with the values);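 active = 35 to 45% if threefold the growth effect, above 45% if 1.5-fold the growth effect; inactive = the rest, general growth blockers included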;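 note: wells of about 50 µL received 100 nL stock; 0% = vehicle wells and 100% = reference inhibitor wells; whole bacteria with a GFP reporter of the hypoxia response; strong numbers were not always called active; many hits fall short of the cut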
Autofluor counter: compound fluorescence in toxin protease inhibitor counterscreen | fluorescence intensity (test concentration not listed) | compound autofluorescence counterscreen, microsphere flow cytometry; stronger effect = higher value | hit rate 3.1% among 360,000;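 active = at least 3 SD above the mean of all compounds, about 16000 in these data; inconclusive = too few beads counted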;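 note: 100 nL of 1 mM stock went into each well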
Mtb hypoxia rep growth: further read-out of Mtb hypoxia rep, marked with its call; growth inhibition, %; measured here: M. tuberculosis growth (absorbance);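 0% = vehicle and 100% = reference antibiotic; read after six days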
* marks the source's active call; other numbers are inactive results; ? = inconclusive; . = no result given; & = joins results of further samples.

SMILES	RN4220 kill	PrP 5UTR inh	ugtP null kill	BJeLR viability	Mtb hypoxia rep	Mtb hypoxia rep growth	Autofluor counter
CC(C)CC(NC(=O)C(NC(=O)OC(C)(C)C)C(C)C)C(=O)NC(CCC(=O)OCc1ccccc1)C(N)=O (centres undefined)	4.1	-17.5&8.2	1.1	-0.9	4.3	10.3	4275
COc1ccc(CCNC(=O)c2ccc(NC(=O)CC3SC(N4CCCCC4)=NC3=O)cc2)cc1 (centres undefined)	2.2	-6.0	2.0	.	14.3	42.4	3955
Cc1ccc(NC(=O)N2CCC(c3nc4c(nnn4Cc4c(F)cccc4Cl)c(=O)[nH]3)CC2)cc1	-7.3	-15.0	36.1	-16.8	-8.3	8.8	10148
CC(OC(=O)CNC(=O)C12CC3CC(CC(C3)C1)C2)C(=O)Nc1ccc(N2CCOCC2)cc1 (centres undefined)	2.8	-8.3	-0.4	-4.5	.	.	2703
N#Cc1ccccc1CSC1=NCCS1	7.3	-6.4	2.8	3.7	19.1	4.6	2503
CSCCC(Nc1ncnc2sc(C)c(C)c12)C(=O)O (centres undefined)	2.6	.	-1.5	.	2.7	4.5	.
Cc1ccc(N(CC(=O)NCCc2ccc(Cl)cc2)S(=O)(=O)c2c(C)noc2C)cc1	2.6	-15.6	-1.7	7.8	3.5	0.6	5875
COc1ccc(C2C=CCN(S(=O)(=O)c3ccc4ccccc4c3)CC(=O)N2Cc2ccc(F)cc2)cc1 (centres undefined)	2.1	.	6.9	.	-0.4	-3.6	.
O=S(=O)(NC(=S)c1ccccc1)c1ccc(Cl)cc1	7.9	-15.2	18.7	-18.6	1.1	4.1	5920
CC(=O)c1cccc(NS(=O)(=O)c2ccc(N/C=C\C(=O)c3ccc(C)cc3)cc2)c1	3.1	-39.9	-6.7	9.2	.	.	2395
CC(=O)N1c2ccccc2NC2=C(C(=O)CCC2)C1c1cccnc1 (centres undefined)	1.0	-24.5	4.0	0.1	.	.	3424
CC(=O)ON=C(N)c1ccc(-c2csnn2)cc1	-0.6	.	-3.0	.	-8.5	-8.8	.
NNC(=O)c1cc(-c2ccco2)[nH]n1	8.8	-13.8	1.6	-7.3	17.8	3.6	2534
O=C(Cc1ccccc1)c1c[nH]c(C(=O)NCCCn2ccnc2)c1	1.4	.	-0.5	-19.3	15.4	-1.5	.
C/C=C/c1ccc(OC)c(OC(C)=O)c1	3.2	-21.5	5.4	7.4	11.5	12.8	8670
Cc1cccc(C2C3C(=O)N(Cc4ccccc4)C(=O)C3[C@]3(Cc4ccc(Cl)cc4)C(=O)N(c4cccc(Br)c4)C(=O)N23)c1 (some centres undefined)	2.4	.	2.6	.	4.7	-5.7	.
Cc1cccc(C(=O)Oc2ccccc2C=NNc2ccc([N+](=O)[O-])cc2)c1	-8.7	.	-18.3	.	9.5	7.4	.
O=C(COc1ccc([N+](=O)[O-])cc1)NCC(c1cccs1)N1CCOCC1 (centres undefined)	6.8	-7.5	1.8	8.8	6.6	-7.4	6961
CCN(CCCNC(=O)CCNC(=O)Cn1cnc2ccccc2c1=O)c1cccc(C)c1	2.0	-14.6	3.6	2.0	.	.	4137
COc1ccccc1Nc1ncc(-c2cccs2)s1	-7.7	-71.8	13.5	2.4	5.9	3.3	3372
Cc1nn(-c2ccc(F)cc2)c2sc(C(=O)OCC(=O)N3CCC(C)CC3)cc12	11.7	-4.1	-7.9	-1.5	6.3	14.5	19994*
CCOc1ccc(NC(=O)c2cc(S(=O)(=O)N3CCCCC3)c[nH]2)cc1	4.6	-17.8	-4.7	-5.8	-1.6	2.8	6045
Cc1cccc(NC(=O)c2cc(Cl)sc2Cl)c1C	7.0	-31.7	2.7	-5.2	6.2	3.6	2384
Cc1ccc(-n2[nH]c3c4c(ccc3c2=O)C(=O)c2ccccc2C4=O)cc1	38.4	-12.7	16.5	14.8	-1.9	8.3	2636
O=C(O/N=C/C1=C(Cl)c2ccccc2CC1)c1ccc(F)cc1	.	-22.6	.	-3.6	.	.	2686

5 entries from above, sorted by SMILES length, highest first:
SMILES	RN4220 kill	PrP 5UTR inh	ugtP null kill	BJeLR viability	Mtb hypoxia rep	Mtb hypoxia rep growth	Autofluor counter
CC(=O)c1cccc(NS(=O)(=O)c2ccc(N/C=C\C(=O)c3ccc(C)cc3)cc2)c1	3.1	-39.9	-6.7	9.2	.	.	2395
Cc1cccc(C(=O)Oc2ccccc2C=NNc2ccc([N+](=O)[O-])cc2)c1	-8.7	.	-18.3	.	9.5	7.4	.
Cc1ccc(-n2[nH]c3c4c(ccc3c2=O)C(=O)c2ccccc2C4=O)cc1	38.4	-12.7	16.5	14.8	-1.9	8.3	2636
CCOc1ccc(NC(=O)c2cc(S(=O)(=O)N3CCCCC3)c[nH]2)cc1	4.6	-17.8	-4.7	-5.8	-1.6	2.8	6045
O=C(O/N=C/C1=C(Cl)c2ccccc2CC1)c1ccc(F)cc1	.	-22.6	.	-3.6	.	.	2686

3 compounds picked at random from those above:
SMILES	RN4220 kill	PrP 5UTR inh	ugtP null kill	BJeLR viability	Mtb hypoxia rep	Mtb hypoxia rep growth	Autofluor counter
O=C(COc1ccc([N+](=O)[O-])cc1)NCC(c1cccs1)N1CCOCC1 (centres undefined)	6.8	-7.5	1.8	8.8	6.6	-7.4	6961
CC(=O)c1cccc(NS(=O)(=O)c2ccc(N/C=C\C(=O)c3ccc(C)cc3)cc2)c1	3.1	-39.9	-6.7	9.2	.	.	2395
Cc1ccc(-n2[nH]c3c4c(ccc3c2=O)C(=O)c2ccccc2C4=O)cc1	38.4	-12.7	16.5	14.8	-1.9	8.3	2636

Back to the main list, starting 2 compounds before the break.
SMILES	RN4220 kill	PrP 5UTR inh	ugtP null kill	BJeLR viability	Mtb hypoxia rep	Mtb hypoxia rep growth	Autofluor counter
Cc1ccc(-n2[nH]c3c4c(ccc3c2=O)C(=O)c2ccccc2C4=O)cc1	38.4	-12.7	16.5	14.8	-1.9	8.3	2636
O=C(O/N=C/C1=C(Cl)c2ccccc2CC1)c1ccc(F)cc1	.	-22.6	.	-3.6	.	.	2686
CNS(=O)(=O)c1cc(N(C)S(=O)(=O)c2ccc(C)cc2)c(C)cc1C	2.9	-17.4	-5.8	4.4	-7.6	0.5	4612
COc1ccc(S(=O)(=O)N(C)C)cc1NC(=O)CSc1nncs1	1.9	-9.1	1.8	-1.6	5.4	9.4	4441
COc1cccc(Nc2nc(-c3sc(NC(=O)c4ccco4)nc3C)cs2)c1	28.2	-5.2	35.5	8.5	4.8	8.1	4028
CCc1ccc(Nc2nc(N)nc(CSc3nnnn3-c3ccccc3)n2)cc1	7.2	-14.1	-4.1	-7.7	.	.	5524
CC(=O)c1ccc(N2CCN(C(=O)C3CCN(C(=O)Nc4ccccc4)CC3)CC2)cc1	0.5	-5.2	6.1	.	-0.8	1.5	3893
O=C(N/N=C/c1cn(Cc2ccccc2)c2ccccc12)c1cccnc1	.	23.8	.	9.7	.	.	2544
CCOC(=O)c1[nH]c2ccc(OC)cc2c1NC(=O)OC	-10.5	-18.4	-4.8	2.6	1.7	12.7	2933
CCCc1nc(SCC(=O)NNC(=O)C2CCCCC2)c2ccccc2n1	1.1	-23.4	1.4	-6.0	0.1	2.7	8150
CC1(C)Cc2c(sc3nc(C4CCCCC4)n(N)c(=O)c23)CO1	0.0	-16.0	8.2	4.0	10.9	2.0	4335
CCOC(=O)C1CCCN(C(=O)c2ccc(CNc3c(N4CCC(C)CC4)c(=O)c3=O)cc2)C1 (centres undefined)	3.2	-19.8	12.5	1.8	9.1	6.6	5358
COC(=O)c1sc(NC(=O)COc2ccccc2OC)nc1C	-1.6	-27.8	-23.6	-5.9	6.8	0.3	11049
CC(C)Cc1ccc(/C=C/C(=O)NC2CC2)cc1	0.5	-145.8	-0.4	22.6	-5.5	-4.4	2552
CCn1c(-c2ccc(F)cc2)n[nH]c1=S	-1.1	-0.9	-5.1	7.3	.	.	4838
COc1ccc(-n2c(SCc3ccccn3)nc3c(c2=O)SCC3)cc1OC	0.1	2.3	-8.5	11.4	13.2	2.1	3724
CCOC(=O)CSC1=NC(=O)/C(=C\c2ccc(OC(C)=O)cc2)S1	-3.5	-31.8	6.5	5.4	4.1	11.7	9921
COCCN(C(=O)c1csnn1)C(C(=O)NC1CCCCC1)c1ccc(Cl)cc1 (centres undefined)	6.4	-11.7	9.0	8.5	-9.0	-2.8	5803
CC(C)(C)[C@@H]1C=C(C(=O)N2CCN(Cc3ccccc3)CC2)O[C@H](OCc2ccc(CO)cc2)C1	.	2.0	.	11.5	.	.	3076
CCN(c1ccccc1)S(=O)(=O)c1cc(NC(=O)CN2CCN(C)CC2)ccc1Cl	2.1	-20.0	4.1	.	6.5	6.1	2769
COc1ccc(CNC(=O)CCC(=O)c2ccccc2)cc1	5.7	-6.8	6.4	.	0.4	6.2	3507
N#Cc1cnc2c(-c3ccccc3)c(-c3ccccc3)nn2c1N	6.7	2.3	5.4	-2.2	6.9	8.0	4221
CCOC(=O)c1ccccc1NC1OC(=O)c2ccccc21 (centres undefined)	25.9	-12.1	-7.6	-1.9	.	.	3962
CSCCC(NS(=O)(=O)c1ccc2c(c1)oc(=O)n2C)C(=O)NC1CCN(Cc2ccccc2)CC1 (centres undefined)	0.8	-15.0	12.1	-4.6	5.0	0.2	3997
COc1ccc(-c2occ(C(=O)O)c2C(=O)O)cc1	1.2	-16.7	-4.8	6.6	7.7	5.6	8846
O=C(N/C(=C/c1ccc(Cl)cc1)c1nc2ccccc2[nH]1)c1ccco1	4.7	-10.1	1.8	7.1	5.9	2.4	2096
COc1ccc(NC(=O)CSc2nnc3ccc(-c4cccnc4)nn23)cc1	0.9	-14.1	2.2	-2.0	-13.4	-1.5	?
(cont.)
SMILES	RN4220 kill	PrP 5UTR inh	ugtP null kill	BJeLR viability	Mtb hypoxia rep	Mtb hypoxia rep growth	Autofluor counter
CC(C)CC(=O)Nc1ccc(OCC(=O)O)cc1	3.9	-2.6	2.8	3.3	1.6	4.4	9982
COc1ccc(OC)c(CNC(=O)CCC(=O)N2Cc3cccc(OC)c3Oc3ncccc32)c1	0.6	-6.6	4.8	0.8	8.4	0.9	4348
C=CCNC(=S)N1CCN(CCN=CC2=C(O)CC(c3cccs3)CC2=O)CC1 (centres undefined)	4.7	-23.5	5.1	-5.0	-5.2	0.8	.
COc1cc(C(=O)NC(C)Cc2cccs2)cc(OC)c1OC (centres undefined)	7.4	-14.7	-0.3	-4.0	14.0	5.1	2027
O=C(OC(C(=O)Nc1ccc(Cl)cc1C(F)(F)F)c1ccccc1)c1c(Cl)cccc1Cl (centres undefined)	-0.1	1.9	80.5	-11.1	4.4	-9.6	1920
CCOc1ccccc1NC(=O)C1CCC(CNc2c(N3CCCCC3)c(=O)c2=O)CC1 (centres undefined)	0.2	-4.3	2.6	5.5	11.6	22.5	5223
CCCC(=O)Nc1nc2ccc(OCC)cc2s1	2.1	-67.2	1.8	-8.5	1.3	1.0	4378
O=C(CN1CCN(S(=O)(=O)c2ccc(Br)cc2)CC1)Nc1ccccc1C(=O)c1ccccc1	4.1	-1.4	-7.7	-10.6	12.1	2.4	7705
O=C(N/N=C1\CCc2ccccc21)c1ccccc1Cl	.	-77.2	.	1.0	.	.	2775
COC(=O)c1[nH]c2ccccc2c1NC(=O)Oc1ccccc1	2.6	-23.2	-6.3	-2.6	.	.	4266
CCc1ccc(C(CC(=O)O)N2Cc3ccccc3C2=O)cc1 (centres undefined)	3.2	-5.5	7.2	2.7	13.7	2.3	4228
CCC(=O)Nc1nc2nc(-c3ccccc3)cc(=O)n2[nH]1	4.4	-7.9	0.3	-4.1	3.5	3.5	5433
Cc1ccc(NC(=O)COC(=O)CCC(=O)c2cccs2)cc1	7.6	-0.5	5.2	-21.1	9.4	0.6	2223
COc1ccc(/C=N/Nc2nnc(-c3ccccc3)c(=O)[nH]2)cc1	.	-5.5	.	-9.6	.	.	2539
CCCCN1C=C(C(C)=O)C(=O)CC1	1.6	-2.5	-0.5	.	-0.8	1.5	3689
CC(=O)c1c(OC(=O)c2ccccc2)ccnc1C(F)(F)F	-0.4	-14.8	-2.3	.	-0.6	-3.5	3643
CCCNC(=O)c1ccc(N2CCC3(CC2)CC(c2cccc(Br)c2)=NO3)c(NC(=O)c2ccco2)c1	47.3	-7.7	43.3	15.8	1.6	17.0	3678
Nc1nc(Cn2nnc(-c3ccccc3Cl)n2)nc(N2CCOCC2)n1	0.9	-1.4	0.1	-7.0	-4.3	-0.3	23188*
